LANA-H2B inh – blocks KSHV LANA binding to histone H2A/H2B | AID 2629 | inhibition, % (concentration not given with the values) | Q9QR71 | cell-free LANA-H2A/H2B peptide, fluorescence polarization | 320,000 tested, 0.6% active; in the data active = inhibition mostly above about 10%, no sharp cut-off; inactive = mostly below about 6.7%;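 note: stock transfer was 7.5 nL into about 10 µL; 0% = median of vehicle wells and 100% = median of positive control wells; one replicate is shown; the record names a cut of 25% in any replicate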
Target sequence (Q9QR71 whole entry, looked up): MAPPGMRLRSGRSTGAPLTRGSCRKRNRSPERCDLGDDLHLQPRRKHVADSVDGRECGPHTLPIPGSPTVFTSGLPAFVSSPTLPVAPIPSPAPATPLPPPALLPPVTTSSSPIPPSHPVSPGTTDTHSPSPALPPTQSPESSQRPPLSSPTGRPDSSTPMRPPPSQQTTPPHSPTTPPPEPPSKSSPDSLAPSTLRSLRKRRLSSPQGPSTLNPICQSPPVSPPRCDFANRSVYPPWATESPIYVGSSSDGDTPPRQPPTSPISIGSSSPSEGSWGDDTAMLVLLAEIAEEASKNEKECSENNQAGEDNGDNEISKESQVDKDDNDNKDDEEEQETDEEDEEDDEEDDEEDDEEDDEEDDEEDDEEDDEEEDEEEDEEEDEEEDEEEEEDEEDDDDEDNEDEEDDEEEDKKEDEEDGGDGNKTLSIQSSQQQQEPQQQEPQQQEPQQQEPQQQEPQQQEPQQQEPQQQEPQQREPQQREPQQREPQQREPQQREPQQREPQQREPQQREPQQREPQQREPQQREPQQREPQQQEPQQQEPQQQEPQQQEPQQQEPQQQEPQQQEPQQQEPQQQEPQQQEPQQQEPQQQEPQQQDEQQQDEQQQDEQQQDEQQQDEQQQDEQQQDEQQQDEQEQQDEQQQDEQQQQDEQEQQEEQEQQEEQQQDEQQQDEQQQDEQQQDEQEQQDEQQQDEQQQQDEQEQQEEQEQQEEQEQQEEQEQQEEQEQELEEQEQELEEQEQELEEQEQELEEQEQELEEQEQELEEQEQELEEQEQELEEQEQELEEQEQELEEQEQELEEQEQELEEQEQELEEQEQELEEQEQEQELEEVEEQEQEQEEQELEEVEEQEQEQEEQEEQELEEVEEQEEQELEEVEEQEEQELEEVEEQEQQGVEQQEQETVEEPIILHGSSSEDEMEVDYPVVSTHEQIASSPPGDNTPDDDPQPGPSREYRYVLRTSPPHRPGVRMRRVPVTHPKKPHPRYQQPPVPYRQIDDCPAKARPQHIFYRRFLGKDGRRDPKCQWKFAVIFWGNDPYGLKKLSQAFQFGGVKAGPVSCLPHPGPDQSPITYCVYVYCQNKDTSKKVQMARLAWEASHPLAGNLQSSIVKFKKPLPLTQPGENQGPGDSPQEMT
Ecoli growth – E. coli growth inhibition; OD600 absorbance (no concentration beside the values); 330,000 tested, 0.21% active; Escherichia coli growth, OD600, 23 h; active compounds read low; AID 1053175;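 active = OD600 absorbance below the run mean of sample wells minus 3.6 SD, in any replicate, cut at about 0.56 in these data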;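 note: stock transfer was 300 nL into about 60 µL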
FGF22 binding – FGF22 (human) thermal shift binding. Q9HCT0. 340,000 tested, 1.5% active. recombinant FGF22 thermal shift, SYPRO orange fluorescence; percent of sucrose octasulfate shift, DMSO zero. calls only at 9.99 µM;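 active = melting point raised past a set limit in the mean and every replicate; three in four hits are not shown here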
UCH37 DUB inh – human UCH37 deubiquitinating enzyme inhibition; purified proteasome/UCH37, Ub-AMC cleavage fluorescence; AID 588478; inhibition, % (concentration not given with the values); 330,000 tested, 0.33% active; Q9Y5K5;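 active = mean of two replicates above 20%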;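 note: 0% = compound-free wells with enzyme and 100% = wells lacking proteasome; stock transfer was 100 nL into about 20 µL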
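Schedule: 30 min plus 25 min, room temperature / Material: human UCH37 within purified proteasomes / Technique: AMC fluorescence intensity at 355/460 nm / Buffer or medium: pH 7.4 Tris-HCl (50 mM) with ovalbumin, ATP-MgCl2, DTT / Controls: wells without proteasome as full block, compound-free enzyme plus substrate as uninhibited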
B2AR ag – human beta-2 adrenergic receptor agonism by FAP; 340,000 tested, 0.43% active; response, % (no concentration beside the values); P07550; Am2.2-beta2AR cells, FAP receptor internalization, flow cytometry; reference of the scale not given here;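 active = response above a set limit, near 3 SD of response in nonfluorescent compounds, cut at about 42% in these data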;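 note: stock transfer was 100 nL into about 11 µL; a reference agonist was the positive control; negative values mostly stem from fluorescent compounds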
ALR inh – blocks human ALR sulfhydryl oxidase activity | P55789 | purified ALR, DTT oxidation, H2O2 HRP-luminol luminescence | inhibition, % (concentration not given with the values) | 290,000 tested, 3.8% active | AID 485317;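 active = mean and each replicate at 75% or more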;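 note: stock transfer was 7.5 nL into about 7.5 µL; 0% = neutral wells and 100% = wells with inactivated enzyme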
HNF4A DNA FP – change in binding of human HNF4 alpha to DNA; activity change, % at 10 µM; AID 1224865; P41235; 360,000 tested, 0.3% active; HNF4a-FITC DNA binding, fluorescence polarization, 1 h; in the data active = activity change above about 30%, passing the limit was not always enough;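 note: controls were the assay level and a saturating level of protein; the project sought stronger binding though the title names inhibitors; some compounds called inactive have numbers as strong as hits; positive values seem to mean higher polarization but the record does not say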
The depositor's hits bear a star; i = inactive; nt = no result given. Only part of the results is shown. The share of hits here may be higher or lower than overall.

SMILES	LANA-H2B inh	Ecoli growth	FGF22 binding	UCH37 DUB inh	B2AR ag	ALR inh	HNF4A DNA FP
COc1cc(C(=O)Nc2cccc(-c3nc4cc(C)ccc4o3)c2C)cc(OC)c1OC	1.0	0.76	nt	1.8	1	-16	-4.0
CCc1nnc(NS(=O)(=O)c2ccc(NC(=S)NC(=O)c3ccccc3)cc2)s1	-1.0	0.69	nt	4.9	-7	96*	-3.6
COc1ccc(NC(=O)c2ccccc2Cl)c(NC(=O)c2ccco2)c1	nt	0.71	i	1.7	-10	nt	-1.8
COC(=O)c1ccccc1NC(=O)NCC1CCCO1 (stereo unspecified)	-2.3	0.7	nt	-16	-8	0	5.6
COC(=O)CSc1nc(N)c(NC(=O)c2ccc(OC)c(OC)c2)c(=O)[nH]1	10	0.75	i	1.8	-6	-3	-2.0
CCCCN1C(=O)c2ccc(C(=O)N(C)CC(=O)Nc3ccc(OCC)c(OCC)c3)cc2C1=O	-4.5	0.65	i	1.6	-3	2	2.0
Cc1occc1C(=O)Nc1nnc(C2CCCCC2)s1	-2.7	0.72	nt	3.9	3	-5	2.2
Cc1ccc(S(=O)(=O)/N=C2\C(=O)c3ccccc3C([O-])=C2n2cc[n+](CCC(C)C)c2)cc1	3.5	0.67	nt	31*	-3	-10	-0.9
CN1C(=O)C(=O)/C(=C(/O)c2ccc(Br)cc2)C1c1cccc([N+](=O)[O-])c1 (stereo unspecified)	4.9	0.7	i	12	8	5	-1.8
O=[N+]([O-])c1cccc(S(=O)(=O)Nc2ccc(S(=O)(=O)N3CCCC3)cc2)c1	1.2	0.7	i	0.6	-1	-10	0.5
COc1ccc(NS(=O)(=O)c2cc(NC(=O)c3ccc(=O)[nH]c3)ccc2N2CCCC2)cc1	1.3	0.7	i	0.7	5	-8	-1.0
C/C(=N\N=C1\NC(=O)C(CC(=O)Nc2ccc(C)c(Cl)c2)S1)C(C)(C)C (stereo unspecified)	-2.5	nt	nt	nt	4	-1	3.0
O=C1C=C(N(CCO)CCO)C2(CCCCC2)O1	-4.4	0.71	nt	4.1	-2	-1	5.0
COc1ccc(/C(N)=N/OC(=O)c2cccc([N+](=O)[O-])c2)cc1OC	-2.9	0.78	nt	3.3	-4	-1	-0.8
COc1cc2c(cc1OC)C(=O)CC(C)S2 (stereo unspecified)	4.6	0.7	nt	-36	3	-11	1.1
O=C(O)C1=NOC(CNc2ncc(C(F)(F)F)cc2Cl)C1 (stereo unspecified)	0.0	0.71	i	5.8	-2	-6	-2.0
O=C(CSc1nncn1-c1cccnc1)N1CCOCC1	-2.3	0.69	i	0.5	-18	-3	-7.1
Cc1cc(C)n(C(=O)Cn2nc(C)c(Br)c2C)n1	-4.6	0.63	i	2.3	-4	-8	-3.6
COc1ccccc1OCC(=O)Nc1ccccn1	2.2	0.67	nt	-1.1	-1	-9	-3.3
Cc1c(C#N)c(N)nc2c3c(sc12)NC(=O)CC3c1ccc(Cl)cc1 (stereo unspecified)	-0.7	nt	i	nt	26	nt	-1.7
Cc1cc2cc(OCC(=O)O)ccc2n1C	-3.1	0.68	nt	4.3	5	-21	-6.1
O=C(Cn1ccc(C(F)(F)F)n1)NNC(=O)c1ccco1	2.3	0.68	i	-0.1	-3	nt	-0.7
FC(F)(F)c1ccc(CN2C[C@@H]3C(c4ccc(Cl)nc4)C4(c5ccccc5)CC3(C4)[C@H]2c2ccccc2)cc1 (stereo partly specified)	-4.5	nt	i	0.3	5	-1	0.6
CCOC(=O)c1ccc(NC(=S)Nc2cccc(C)n2)cc1	2.7	nt	nt	nt	-6	1	0.8
NC(=O)c1ccc(NC(=O)CCCN2C(=O)c3ccccc3C2=O)cc1	-4.7	0.74	nt	0.9	6	-2	0.1
COc1cc(C2/C(=C(/O)c3ccc(F)cc3)C(=O)C(=O)N2CCCC(=O)O)ccc1O (stereo unspecified)	-1.9	0.68	nt	5.9	-1	11	2.1
Cc1cc(C)c(C)c(S(=O)(=O)Nc2cccc(-n3cnnn3)c2)c1C	6.1	0.66	i	2.9	2	-3	4.1
C=C(C)COc1ccc(-c2ncncc2Oc2ccc(OC)cc2)c(O)c1	2.1	0.74	nt	3.1	-5	-12	1.1
Cc1ccc(OCCNC(=O)CNC(=O)c2ccc(C)c(C)c2)cc1	2.2	0.69	i	2.1	2	2	1.2
CC(=O)C(CC(=O)N1CCCC1)C(=O)Nc1ccc(Cl)cc1 (stereo unspecified)	-1.4	0.68	i	2.5	-7	24	1.5
COC(=O)c1cc(=O)n(Cc2ccc3c(c2)OCO3)c(=Nc2ccccc2)s1	0.0	0.79	i	5.0	4	-3	0.6
CCOC(=O)c1c(C)[nH]c2c1cc(O)c1ccccc12	1.0	0.69	i	-4.6	12	51	-3.1
COc1cccc(-n2c(SCC(N)=O)nnc2-c2ccncc2)c1	-1.6	0.68	nt	5.4	-3	nt	-0.5
COCCCn1c(-c2ccccc2Cl)n[nH]c1=S	4.9	0.77	nt	-4.9	-1	72	0.4
COc1ccc(C(=O)Nc2ccc3nc4n(c(=O)c3c2)CCCC4)cc1[N+](=O)[O-]	-1.3	0.68	nt	5.6	nt	-2	nt
Cc1cc(-c2nnc(CCC(=O)NCc3cccc(C(F)(F)F)c3)o2)no1	2.1	0.66	i	3.3	-2	2	0.2
COc1ccc(CC(=O)N/N=C(\C)c2cccs2)cc1OC	1.1	nt	i	nt	-3	-20	2.3
Cn1cnc2ccc([N+](=O)[O-])cc2c1=O	-7.2	0.69	i	7.5	-2	-10	-3.6
CC(=O)Oc1ccc(/C=C2/CCc3ccccc3C2=O)cc1	-5.6	0.63	i	7.7	-8	27	5.3
CC(Cn1nnc2ccccc21)C(=O)O (stereo unspecified)	-3.9	0.71	i	7.3	-5	-8	1.9
CCCn1c(C(C)Nc2nc(-c3cc(Cl)c(N)c(Cl)c3)cs2)nc2cc(Cl)c(N3CCCCC3)cc21 (stereo unspecified)	1.8	0.69	i	5.0	5	10	1.0
O=C(CSc1cn[nH]n1)Nc1ccccc1F	nt	0.68	i	1.8	-8	nt	0.4
COc1ccccc1N(CC(O)COc1c(C)cc(C)cc1C)S(=O)(=O)c1ccccc1 (stereo unspecified)	-2.9	0.67	i	0.6	9	0	-2.6
NC(=O)C1CCN(C(=O)Cc2ccc(-c3ccccc3)cc2)CC1	3.5	0.69	i	-3.4	-8	-7	-0.2
CC1(C)Cc2c(ccc3ccccc23)-c2nnc(-c3cccnc3)n21	2.9	0.68	nt	3.1	-10	-16	4.9
Cc1[nH]nc(-c2ccc(O)cc2O)c1Oc1ccccc1	12	0.65	i	2.2	0	98*	0.3
CCCSCCCNC(=O)Cn1cc2c(n1)CCC(C)C2 (stereo unspecified)	5.7	0.73	i	-3.1	-6	-6	-1.8
COc1ccc(C2CC(=O)c3cnc(NC(=O)c4ccco4)nc3C2)cc1 (stereo unspecified)	-1.8	0.68	i	1.4	-4	12	-1.6
COC(=O)c1ccc(C(C(=O)NC2CCCCC2)N(C(=O)Cc2cccs2)C2CC2)cc1 (stereo unspecified)	-1.5	0.72	nt	-0.4	-6	8	-0.5
CC1=NCCN1S(=O)(=O)c1cc([N+](=O)[O-])ccc1Cl	1.4	0.68	i	2.9	0	-19	-1.1
O=C(COC(=O)C1CC(=O)N(c2ccccc2)C1)c1ccccc1 (stereo unspecified)	0.3	0.66	i	1.7	3	-1	0.1
CC(C)(C)C(=O)Nc1ncccc1C(O)c1cccc(C(F)(F)F)c1 (stereo unspecified)	-2.5	0.71	i	1.0	-6	-4	1.2
COCCN1CCN(C(=O)c2cc(COc3cncc(Cl)c3)on2)CC1	3.8	0.64	i	1.4	6	-5	2.4
CC1CCN(S(=O)(=O)c2ccc3c(c2)oc(=O)n3C)CC1	2.4	0.66	i	1.6	6	2	-2.0
O=C(NNc1c(F)c(F)cc(F)c1F)C1CCN(S(=O)(=O)c2ccccc2F)CC1	1.5	0.67	i	-0.9	2	10	-0.1
CCN(CC)c1ccc(NC(=O)COC(=O)/C=C/c2nc3ccccc3s2)cc1	-3.3	0.68	nt	0.0	18	99*	3.2
C/C(CC(=O)Nc1ccc(OCc2ccccc2)cc1)=N\NC(=O)C(=O)Nc1ccc(C)c(Cl)c1	3.2	nt	nt	nt	-1	-6	2.9
Cc1nc(C(Cl)(Cl)Cl)nc2[nH]ccc(=O)c12	7.1	0.68	i	4.7	-10	-2	-4.7
CNC(=O)COC(=O)c1cc(=O)[nH]c2ccccc12	2.6	0.73	nt	-52	-9	4	1.3
COc1ccccc1C(=O)NCCC(=O)NC1CCCCCC1	-2.1	0.67	i	0.8	6	28	-5.0
(list continues)
SMILES	LANA-H2B inh	Ecoli growth	FGF22 binding	UCH37 DUB inh	B2AR ag	ALR inh	HNF4A DNA FP
Cc1ccc(C(=O)N/C(=C\c2ccccc2)C(=O)NCCCn2ccnc2)cc1	1.1	0.73	nt	3.9	3	-19	-3.5
C=CCn1c(SCc2nc3cc(C(F)(F)F)ccc3c(=O)[nH]2)nc2sc(CC)cc2c1=O	3.2	0.67	nt	-1.0	4	-1	9.2
COc1cccc(NS(=O)(=O)c2ccc3[nH]cc(C(=O)N(C)Cc4ccco4)c(=O)c3c2)c1	-6.3	0.68	nt	-3.9	7	5	-2.2
CC(C)(C)c1ccc(S(=O)(=O)Nc2cccnc2)cc1	4.4	0.66	nt	1.2	-3	-1	-2.7
Clc1ccc(-n2nnnc2-c2cnc(-c3ccccn3)nc2-c2cccs2)cc1	-0.4	0.7	nt	-3.4	-13	nt	3.8
Cc1cc(=O)[nH]c(N/N=C/c2ccc(-c3ccc(F)cc3)o2)n1	1.8	nt	i	nt	14	33	2.2
COc1ccc(OC)c(NC(=O)C2CCCN2C(=O)OCc2ccccc2)c1 (stereo unspecified)	nt	0.77	nt	3.3	0	nt	-1.1
COCCCn1c(C(=O)N2CCOCC2)cc2c(=O)n3ccccc3nc21	2.1	0.68	i	i	-8	-4	3.3
O=C(Nc1ccc(N2CCOCC2)c(Cl)c1)c1ccc(-n2cnnc2)cc1	-1.1	0.72	i	-1.9	-12	-1	-1.0
O=C(COC(=O)c1ccc2c(c1)OCCO2)NCc1ccccc1	3.9	0.77	nt	-1.4	-6	-6	-1.2
COc1ccc(S(=O)(=O)N(CCc2ccccc2)CC(=O)O)cc1	4.3	0.68	nt	6.1	51*	-4	-2.5
COc1ccc(C(c2sc3nc(C)nn3c2O)N2CCc3ccccc3C2)cc1 (stereo unspecified)	1.6	0.73	i	2.6	-8	nt	6.9
Cn1c(=O)c2c3c(sc2n2c(SCC(N)=O)nnc12)CC(C(C)(C)C)CC3 (stereo unspecified)	-2.5	0.65	nt	5.6	-4	-33	3.9
CCN(Cc1ccccc1)S(=O)(=O)c1c(C)[nH]c(C)c1C(=O)N1CCCCC1	7.2	0.71	i	6.1	-2	3	-2.4
NNC(=O)CC12CC3CC(C1)CC(n1ncnn1)(C3)C2	4.1	0.7	nt	2.9	-5	-42	-1.2
Oc1ccc(/C=N/N=C(c2ccccc2)c2ccccc2)c(O)c1O	6.4	nt	nt	nt	4	98*	-4.7
O=C(O)CCCc1ccccc1	6.5	nt	i	2.9	-7	nt	2.4
C[C@@H]1COC(=O)[C@H](Cc2ccc(F)cc2)CC/C=C/C[C@@H](CC(=O)N[C@@H](CO)Cc2ccccc2)C(=O)N1	-4.2	0.8	i	2.0	-8	-4	1.8
CN(C)CCOCCSc1ccc(Cl)cc1	-4.2	0.67	nt	4.4	4	0	-0.4
COc1ccc(S(=O)(=O)NCC2CCCN(C(=O)CC3CCCC3)C2)cc1 (stereo unspecified)	-1.2	0.68	i	4.2	-13	-26	2.1
